# Source: PubChem BioAssay
# Rango release inh – qHTS Assay for Inhibitors of RanGTP induced Rango (Ran-regulated importin-beta cargo) - Importin beta complex dissociation; Biochemical FRET Rango-importin beta, RanGTP-induced dissociation; Potency, µM (titrated, usually from 46.1 µM), inactives show at the top dose activity change, negative = inhibition; 0.071% of 340,000 active; active means falling FRET ratio curve, often poorly fitted, with flat reads before Ran was added; inconclusive means other falling curves, or compound fluorescence or quenching; inactive means flat or rising ratio curve;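 note: potency is the fitted concentration of half-maximal effect; % of control where 0% means no effect; nearly all actives have a fitted effect of over 45% in size; -100% = wells without RanGTP and RCC1; the record marks most hits as doubtful in a second field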
#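 Two FRET readings bracket the reaction: one 5 min after compound meets Rango–importin beta, another 45 min after RanGTP-RCC1 (0.6 uM Ran, 0.2 uM RCC1, 2 mM GTP) is added. Only the second defines inhibition.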
# miR-21 FLuc – qHTS Assay for Modulators of miRNAs and/orActivators of miR-21; HeLa miR-21 FLuc reporter, luciferase, 48 h; Potency, µM (series often up to 38.3 µM), for the others: top-dose reporter change, positive = more light; 340,000 tested, under 10 active; AID 2288, 2010; active = well fitted rising curve with a large enough effect; inconclusive = small, poorly fitted or top-dose-only effect; inactive = no such curve, though single readings can be large or run the other way;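 note: % of control where 0% means no effect; miR-21 action dims this reporter so a rising signal means less miR-21 action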
#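 HeLa miR-21-FLuc reporter line, endogenous miR-21; 2000 cells/well in DMEM/10% FBS; compound titration up to ~40uM final, 48 h, 37 degree Celsius; luciferase detection reagent, 15 min lysis, CCD luminescence.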
# GLA inh pH 4.5 – qHTS Assay for Inhibitors of Human alpha-Galactosidase at pH 4.5. Alpha-galactosidase A (Homo sapiens), P06280. purified enzyme, 4-MU-alpha-Gal fluorescence, pH 4.5. activity change, negative = inhibition, % at 105 µM. 230,000 tested, under 10 active; inconclusive = small, poorly fitted or top-dose-only inhibition, or a rising curve; inactive = flat fitted curve, though single readings scatter; no compound was filed as active;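 note: 0% = full activity with enzyme and -100% = basal without enzyme; dose as in the result columns while the protocol names 77 µM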
# Rango-impB inh – qHTS Assay for Inhibitors of Rango (Ran-regulated importin-beta cargo) - Importin beta complex formation; Rango CFP/YFP FRET sensor + importin beta, 45 min; Importin subunit beta-1 (Homo sapiens), Q14974; 0.031% of 340,000 active; Potency, µM (highest dose often 92.2 µM), for inactives: top-dose inhibition of complex formation; active = rising FRET ratio curve, often small or poorly fitted; inconclusive = mostly compound fluorescence or quenching in the first reads; inactive = flat curves in all reads;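 note: potency is the fitted concentration of half-maximal effect; 0% = DMSO wells and 100% = buffer wells lacking importin beta; nearly all actives have a fitted effect of over 15% in size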
# Target sequence (Q14974 whole entry, looked up): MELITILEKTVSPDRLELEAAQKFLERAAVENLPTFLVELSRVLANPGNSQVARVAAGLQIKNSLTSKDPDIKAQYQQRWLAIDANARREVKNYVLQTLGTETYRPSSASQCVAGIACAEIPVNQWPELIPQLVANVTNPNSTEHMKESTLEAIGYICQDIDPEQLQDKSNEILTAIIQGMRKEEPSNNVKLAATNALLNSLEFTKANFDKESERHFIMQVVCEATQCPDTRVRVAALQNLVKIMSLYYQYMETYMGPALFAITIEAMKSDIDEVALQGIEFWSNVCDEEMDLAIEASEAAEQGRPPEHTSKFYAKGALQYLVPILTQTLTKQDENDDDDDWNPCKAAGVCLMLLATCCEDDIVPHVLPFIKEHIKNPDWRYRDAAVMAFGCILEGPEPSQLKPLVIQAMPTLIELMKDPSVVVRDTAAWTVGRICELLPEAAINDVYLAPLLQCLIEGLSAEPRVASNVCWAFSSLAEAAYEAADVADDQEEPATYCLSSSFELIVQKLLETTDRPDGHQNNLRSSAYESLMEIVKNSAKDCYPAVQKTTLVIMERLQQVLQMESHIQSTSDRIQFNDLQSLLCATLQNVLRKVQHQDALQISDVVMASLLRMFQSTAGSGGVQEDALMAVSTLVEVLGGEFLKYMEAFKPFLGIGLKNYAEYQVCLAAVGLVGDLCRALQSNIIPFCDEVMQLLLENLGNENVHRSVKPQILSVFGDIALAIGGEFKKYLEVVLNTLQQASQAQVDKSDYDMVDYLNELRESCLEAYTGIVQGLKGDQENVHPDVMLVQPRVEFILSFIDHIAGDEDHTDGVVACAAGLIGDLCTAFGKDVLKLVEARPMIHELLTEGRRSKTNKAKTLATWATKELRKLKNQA
#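 FRET biosensor (snurportin 1 IBB flanked by EYFP and cerulean), 50 nM, with compound 5 min, then 0.125 microM importin beta in PBS, 1 mM DTT, 0.02% Tween-20, 0.1% BSA. CFP/YFP ratio read after 45 min at room temperature; pre-read flags interference.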
# Active calls of the source: *; ? = inconclusive; nt = not tested or not shown; & = joins results of further samples.
nr	SMILES	Rango release inh	miR-21 FLuc	GLA inh pH 4.5	Rango-impB inh
1	Cc1[nH]c2ccccc2c1/C=N/Nc1ccccn1	nt	-10%	3	nt
2	CCn1nc(C)c(CNC(=O)CC2C(=O)NCCN2CC(C)(C)C)c1C (configuration not stated)	5%	3%	-4	-0.8%
3	CN(C)CCN1C(=O)C(=O)/C(=C(/O)c2ccc(S(=O)(=O)N3CCOCC3)cc2)C1c1ccc(F)cc1 (configuration not stated)	15%	0%	nt	2.7%
4	CCOc1cccc(N2C(=O)CC(N(CCc3ccc(OC)c(OC)c3)C(=O)CC)C2=O)c1 (configuration not stated)	?	-8%&3%	2&4	-2.2%
5	COc1ccc(C(C(=O)Nc2ccc(F)cc2)N(C(=O)Cn2nnc3ccccc32)C2CC2)cc1 (configuration not stated)	-2%	2%	-12	5.6%
6	COc1ccn(C2CCCCO2)c(=O)n1 (configuration not stated)	11%	nt	nt	0.1%
7	COc1ccc(C(=O)OCC(=O)Nc2cc(C)c(C)cc2[N+](=O)[O-])cc1	0%	-6%	7	-0.2%
8	COc1ccc(-c2[nH]ncc2/C=N/NC(=O)c2cc(Br)ccc2O)c(OC)c1	?	-10%	-18	-0.7%
9	Cc1ccc(Cl)cc1N1CCN(Cc2nc3c(c(=O)[nH]c(=O)n3C)n2CCc2ccccc2)CC1	0%	-7%	4	1.2%
10	CSc1ccccc1COC(=O)Nc1ccccc1C	-5%	-24%	0	-1.0%
11	COC(=O)c1c(C)[nH]c(O)c1C=Nc1ccc(Oc2ccccc2)cc1	0%	-3%	-8	3.2%
12	O=C(CC1COc2ccccc2O1)NCc1ccccc1 (configuration not stated)	-11%	-9%	-3	-3.0%
13	CC(C)C(c1nnnn1C1CCCCC1)N1CCc2ccccc21 (configuration not stated)	15%	-4%	-2	-2.6%
14	O=C(/C=C/c1ccc(Cl)cc1Cl)N1CCN(c2ccc([N+](=O)[O-])c(N3CCOCC3)c2)CC1	-4%	-4%	1	4.4%
15	Cc1cc(C)cc(OCCn2nnc3ccccc32)c1	12%	-59%	nt	6.0%
16	CSc1nc2nccc(-c3ccc4c(c3)OCO4)n2n1	-11%	-20%	-2	?
17	O=C(c1cccs1)N1CCCN(c2ncnc3scc(-c4ccccc4)c23)CC1	15%	11%	-7	-1.2%
18	CS(=O)(=O)c1ccc2nc(NC(=O)CN3CCCCCC3)sc2c1	2%	0%	-1	4.2%
19	COC(=O)c1cc(Br)c(=O)n(-c2cc(C)on2)c1	13%	1%	-5	-2.6%
20	CC(C)CN(C(=O)c1cc(=O)[nH]c2ccccc12)c1c(N)n(Cc2ccccc2)c(=O)[nH]c1=O	4%	nt	nt	4.1%
21	COc1cc2cc(C(=O)N/N=C/c3ccc(F)cc3)[nH]c2cc1OC	22%	-1%	nt	4.8%
22	COC(=O)c1c(NC(=O)c2c(C)noc2C)sc2c1CCCCCC2	nt	-1%	-4	nt
23	CCOc1ccc(C2C3=C(CCCC3=O)Nc3nc(C(F)(F)F)nn32)cc1OC (configuration not stated)	-6%	-13%	-2	-0.5%
24	O=C(Cc1ccccc1F)Nc1cc(S(=O)(=O)N2CCCC2)ccc1Cl	-25%	nt	nt	0.2%
25	COC(=O)Cn1c(=NC(=O)c2nc3ccccc3s2)sc2cc(S(C)(=O)=O)ccc21	nt	-10%	2	nt
26	CCc1ccc(-n2c(Cc3ccccc3)n[nH]c2=S)cc1	-12%	2%	1	-2.7%
27	N#Cc1ccsc1NC(=O)CCS(=O)(=O)c1ccccc1	-8%	0%	nt	0.1%
28	Cc1cc(C)n(-c2c(F)c(F)c(CN3CCCCC3)c(F)c2F)n1	-19%	-1%	-4	-1.4%
29	COc1ccc(O)c(-c2nc(N)nc(N)n2)c1	-26%	nt	nt	-2.5%
30	CCC(=O)N1CCCc2cc(S(=O)(=O)N3CCN(c4ccccn4)CC3)ccc21	-2%	17%	-8	-0.8%
31	Cc1ccc(-n2c(-c3ccco3)nc3nc4ccccc4nc32)cc1F	-24%	-2%	13	-2.1%
32	O=C1S/C(=C\c2cccs2)C(=O)N1c1ccc(O)cc1	11%	-47%	nt	0.2%
33	OCCN1CCN(C(=S)c2ccc(Cl)cc2)CC1	6%	-5%	2	-0.4%
34	CC(C)(O)c1[nH]c2ccc(C#N)cc2c1C(C)(C)O	-6%	-2%	nt	-0.9%
35	CCn1ncc(Br)c1C(=O)Nc1ccc(OC(F)(F)F)cc1	-7%	-8%	nt	0.7%
36	O=C(Cn1cnc2c(nc3n2CCCCC3)c1=O)Nc1cccc(C(F)(F)F)c1	-11%	-5%&-2%	nt	0.4%
37	Cc1c(NC(=S)NC(=O)COc2ccccc2)c(=O)n(-c2ccccc2)n1C	-1%	0%	-2	-2.9%
38	CCOc1ccccc1N=C1NC(=O)CS1	-4%	0%	-3	?
39	COCCNC(=O)c1ccc(N(C)S(=O)(=O)c2ccc(OC)c(OC)c2)cc1	1%	-13%	1	0.4%
40	CC1CCCCN1Cc1ccc(N)cc1 (configuration not stated)	1%	-4%	8	-1.1%
41	CCNC(=O)Nc1cc2nc(C)n(Cc3ccc(Br)cc3)c2nc1C	-19%	-14%	2	0.8%
42	Cc1ccccc1C(=O)c1cccn1CC(=O)NCc1ccccc1Cl	32%	-51%	nt	-5.2%
43	COc1ccc2c3n([n+]([O-])c2c1)CCN=C3c1ccc(Cl)cc1	0%	nt	nt	-4.5%
44	Cc1ccc(NC(=O)COC(=O)c2ccc(CN3CCCC3=O)cc2)cc1C	-10%	nt	nt	1.6%
45	Cc1cc(C)c2[nH]c(=O)c(C(c3nnnn3CC3CCCO3)N3CCC(C)CC3)cc2c1 (configuration not stated)	-29%	3%	-3	?
46	COC(=O)CCC(=O)Nc1ccc(S(=O)(=O)N2CCCCCC2)cc1	0%	-3%	-3	-0.6%
47	CCC(OC(=O)c1nsc(Cl)c1Cl)C(=O)NC(C)(C)CC (configuration not stated)	14%	-2%	6	-0.5%
48	CCC(=O)N1CCc2cc(S(=O)(=O)CCC(=O)N3CCN(c4ccc(F)cc4)CC3)ccc21	-2%	5%	nt	-0.5%
49	O=C(Cc1cccs1)N1CCCC(c2nc(-c3ccc(S(=O)(=O)N4CCCC4)cc3)no2)C1 (configuration not stated)	-4%	13%	0	1.2%
50	COc1ccccc1C(CNC(=O)C(C)Oc1ccc(Br)cc1)N1CCCC1 (configuration not stated)	-6%	nt	nt	?
51	COC(=O)C1=C(NC(=O)c2ccc(C)c(C)c2)CCS1	-13%	-5%	3	-3.2%
52	Cn1c(=O)[nH]c(=O)c2c1nc(CN1CCN(c3ccc(F)cc3)CC1)n2CCCc1ccccc1	-7%	-2%	5	0.3%
53	CC(=O)N1CCN(c2ccc(NCc3cccc(C)c3)cc2)CC1	-6%	nt	nt	1.4%
54	CCOc1ccc(N(CC(=O)NCCCOC)S(C)(=O)=O)cc1	-1%	-5%	0	3.3%
55	Cc1ccc(C)c(COC(=O)c2cc(S(=O)(=O)N3CCCCC3)ccc2N2CCOCC2)c1	3%	nt	nt	-0.1%
56	CN(CC(=O)Nc1cccc(F)c1)C(=O)C1CC(=O)N(CCc2ccccc2)C1 (configuration not stated)	15%	nt	nt	-3.4%
57	O=C1OCCC1Sc1nnc(-c2ccc3c(c2)OCO3)n1-c1ccccc1 (configuration not stated)	-6%	3%	1	0.9%
58	O=c1oc2ccccc2c(Nc2ccc3ncccc3c2)c1[N+](=O)[O-]	8%	-10%	-14	-1.8%
59	CCN(CC)c1ncc(C#N)c(N)n1	26%	-14%	0	-0.5%
60	Cc1ccc(Cl)c(Cn2cnc3c(cnn3C(C)(C)C)c2=O)c1F	7%	nt	nt	0.9%

# Looked up one by one from the entries so far (5):
nr	SMILES	Rango release inh	miR-21 FLuc	GLA inh pH 4.5	Rango-impB inh
9	Cc1ccc(Cl)cc1N1CCN(Cc2nc3c(c(=O)[nH]c(=O)n3C)n2CCc2ccccc2)CC1	0%	-7%	4	1.2%
19	COC(=O)c1cc(Br)c(=O)n(-c2cc(C)on2)c1	13%	1%	-5	-2.6%
37	Cc1c(NC(=S)NC(=O)COc2ccccc2)c(=O)n(-c2ccccc2)n1C	-1%	0%	-2	-2.9%
36	O=C(Cn1cnc2c(nc3n2CCCCC3)c1=O)Nc1cccc(C(F)(F)F)c1	-11%	-5%&-2%	nt	0.4%
29	COc1ccc(O)c(-c2nc(N)nc(N)n2)c1	-26%	nt	nt	-2.5%

# Further compounds
nr	SMILES	Rango release inh	miR-21 FLuc	GLA inh pH 4.5	Rango-impB inh
61	CS(=O)(=O)c1ccc(Cl)c(NC(=O)COC(=O)CCN2C(=O)C3CC=CCC3C2=O)c1 (configuration not stated)	4%	nt	nt	-8.8%
62	O=C(Cc1ccccc1F)Nc1ccc(S(=O)(=O)N2CCCCC2)cc1	17%	-2%	nt	0.4%
63	O=C(COc1ccccc1)NC1=NCCS1	-6%	-9%	1	0.1%
64	CC(=O)N1c2ccc(S(=O)(=O)N3CCC(C(=O)NCc4ccc(C)cc4)CC3)cc2CC1C (configuration not stated)	1%	5%	nt	0.5%
65	O=C(NCCc1ccc(Cl)cc1)C1(c2ccccc2)CC1	0%	-6%	nt	-0.1%
66	O=C(NC1CCCN(Cc2ccccc2F)C1)c1cccc(N2CCCC2=O)c1 (configuration not stated)	-15%	1%	nt	4.3%
67	CC(CC1C(C#N)=C(N)SC(N)=C1C#N)c1ccccc1 (configuration not stated)	?	12%	4	?
68	O=C(CCc1ccccc1)NNC(=O)c1cccc(F)c1	10%	2%	2	-0.5%
69	Cc1nc2ccc(C(=O)Nc3ccc(N(C)C)cc3)cc2s1	-5%	nt	nt	-0.8%
70	Cc1ccc(SCC(=O)NNC(=O)CCS(=O)(=O)c2ccc(C)cc2)cc1	-7%	nt	nt	3.3%
71	Cc1cc(C)nc(NS(=O)(=O)c2cccs2)c1	-11%	-10%	7	-1.9%
72	CCOc1cc(/C=C2/NC(=O)NC2=O)cc([N+](=O)[O-])c1O	-13%	-13%	-9	3.8%
73	CCN(CC)c1ccc(C(=O)Nn2c(C)nc3ccccc3c2=O)cc1	-2%	4%	nt	-3.6%
74	CSc1ccccc1NC(=O)c1ccccc1N(Cc1ccccc1)S(C)(=O)=O	-6%	-11%	2	-2.6%
75	Cn1ncc(Cl)c1C(=O)Nc1sc2c(c1C(N)=O)CCC2	-21%	-5%	-3	2.5%
76	CC1CC(C)(C)N(C(=O)NC2CCCCC2)c2ccccc21 (configuration not stated)	16%	-17%	2	5.8%
77	CCCCOCCCNC(=O)c1ccccc1OCC	-4%	-12%	-4	-0.7%
78	Cc1ccc(NC(=O)Nc2cnccn2)cc1Cl	-3%	-9%	2	2.0%
79	Cc1cc(=O)oc2ccc(OC(=O)CN3C(=O)c4cccc([N+](=O)[O-])c4C3=O)cc12	-10%	-20%	-8	?
80	Cc1nc(NC(=O)CN(C)S(=O)(=O)c2ccc(Br)cc2)sc1C	-12%	12%	2	0.4%
81	Cc1cc2ccccc2n1CCNC(=O)C(C)Oc1ccccc1 (configuration not stated)	?	-16%	-11	?
82	CCC(C)[C@H](NC(=O)C1CCN(C(=O)[C@H](Cc2ccccc2)NS(=O)(=O)c2ccc(C)cc2)CC1)C(=O)O (some centres not stated)	13%	-4%	nt	4.0%
83	COc1cc(/C=N/n2cc(-c3ccccc3)[nH]c2=S)cc(OC)c1O	?	0%	-7	?

# Three of the compounds above, with each value named:
(82) CCC(C)[C@H](NC(=O)C1CCN(C(=O)[C@H](Cc2ccccc2)NS(=O)(=O)c2ccc(C)cc2)CC1)C(=O)O (some centres not stated)
  Rango release inh: 13% | miR-21 FLuc: -4% | GLA inh pH 4.5: nt | Rango-impB inh: 4.0%

(51) COC(=O)C1=C(NC(=O)c2ccc(C)c(C)c2)CCS1
  Rango release inh: -13% | miR-21 FLuc: -5% | GLA inh pH 4.5: 3 | Rango-impB inh: -3.2%

(27) N#Cc1ccsc1NC(=O)CCS(=O)(=O)c1ccccc1
  Rango release inh: -8% | miR-21 FLuc: 0% | GLA inh pH 4.5: nt | Rango-impB inh: 0.1%

# These rows are one share of the data; the hit share may differ from the screen's.
